NS1 inh: inhibitors of influenza NS1 protein function. S. cerevisiae slowed by influenza A NS1, growth recovery by OD600. hit rate 0.4% among 270,000. AID 2326. Potency, µM (highest dose often 46.1 µM), without a hit: at the top dose activity, positive = more growth; active means well fitted rising curve with a large enough effect; inconclusive means small, poorly fitted or top-dose-only effect; inactive means no such curve, though single readings can be large or run the other way; note: nearly all actives have a fitted effect of over 50% in size
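Growth recovery, yeast-based: influenza A NS1 expressed in S. cerevisiae causes slow growth, and suppressors are detected by OD600. The parent strain without NS1 is used as positive control.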
Lassa entry inh: inhibitors of Lassa virus binding or cell entry; Lassa virus pseudotype entry inhibition, cell reporter; control for the full effect not named in the record; Potency, µM (top dose mostly 37.9 µM), for inactives: at the top dose activity change, negative = inhibition, hits mostly inhibitors; hit rate 1.2% among 300,000; AID 540256; active means well fitted inhibition curve with a large enough effect; inconclusive means small, poorly fitted or top-dose-only effect, or effect the other way; inactive means flat fitted curve, though single readings scatter; tested in HEK293 cells; note: % is set by controls: 0 for no effect and ±100 for the full control effect; nearly all actives have a fitted effect of over 50% in size; luciferase read-out
RE007 growth inh: less growth of the S. pombe RE007 Vpr strain; S. pombe RE007 Vpr strain, BacTiter-Glo ATP luminescence, 24 h; control for the full effect not named in the record; hit rate 0.21% among 360,000; Potency, µM (doses to about 92.2 µM), without a hit: at the top dose activity change, negative = less growth; AID 651644; active = well fitted falling curve with a large enough effect; inconclusive = small, poorly fitted or top-dose-only effect; inactive = no such curve, though single readings can be large or run the other way;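 note: % is set by controls: 0 for no effect and ±100 for the full control effect; nearly all actives have a fitted effect of over 50% in size; the assay follows cell death caused by Vpr and the record does not say whether a fall means rescue or toxicity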
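Fission yeast strain RE007, carrying one chromosomally integrated HIV-1 vpr copy, was seeded at OD 0.01 in PMG+AL medium with 23 nL pinned compound. After 24 h at 30 °C and 99% humidity, viability was read by BacTiter-Glo luminescence.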
Cruzain noTriton: cruzain (T. cruzi) inhibition without detergent; P25779; purified cruzain, Z-FR-AMC fluorescence, no detergent; Potency, µM, for inactives: max response, negative = inhibition, actives largely listed as inhibitors; hit rate 2.3% among 200,000; AID 1476;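 note: plate controls were enzyme without inhibitor for no effect and buffer without enzyme for full effect; nearly all actives have a fitted effect of over 40% in size; top concentration of the series not given in the record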
Target sequence (P25779 123-467 limits assumed): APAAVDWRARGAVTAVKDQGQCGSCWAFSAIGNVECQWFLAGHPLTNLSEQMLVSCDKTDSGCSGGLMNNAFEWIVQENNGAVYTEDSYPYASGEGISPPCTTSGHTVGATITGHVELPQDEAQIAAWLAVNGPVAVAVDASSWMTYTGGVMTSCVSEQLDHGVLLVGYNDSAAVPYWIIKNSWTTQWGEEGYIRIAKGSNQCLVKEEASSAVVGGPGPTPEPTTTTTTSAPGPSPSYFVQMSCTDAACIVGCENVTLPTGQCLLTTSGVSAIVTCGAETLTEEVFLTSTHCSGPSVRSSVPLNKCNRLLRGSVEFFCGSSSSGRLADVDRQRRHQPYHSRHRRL
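Purified cruzain at 1.5 nM, pre-incubated 15 min with compound at room temperature in 100 mM sodium acetate pH 5.5, 5 mM DTT, 0.00005% Triton X-100. Reaction started with 2 uM Z-FR-AMC; AMC fluorescence increase over 60 s gives rate.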
SARS PLpro yeast: blocks SARS-CoV papain-like protease in a yeast assay | S. cerevisiae expressing SARS-CoV PLpro, growth rescue; control for the full effect not named in the record | Potency, µM (doses to about 32.9 µM), inactives show at the top dose activity, positive = growth rescue | hit rate 0.19% among 330,000; active means well fitted rising curve with a large enough effect; inconclusive means small, poorly fitted or top-dose-only effect; inactive means no such curve, though single readings can be large or run the other way; note: 0% is about no effect; nearly all actives have a fitted effect of over 55% in size; growth read by luminescence after 48 h
Cruzain Triton: cruzain (T. cruzi) inhibition with detergent; P25779; purified cruzain, Z-FR-AMC fluorescence, 0.01% Triton; Potency, µM, for inactives: max response, negative = inhibition, usual class: inhibitors; hit rate 0.43% among 200,000; AID 1478;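 note: plate controls were neutral wells for no effect and buffer without enzyme for full effect; nearly all actives have a fitted effect of over 40% in size; top concentration of the series not given in the record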
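Purified cruzain (1.5 nM final) was preincubated with compounds for 15 min at room temperature in 100 mM sodium acetate pH 5.5, 5 mM DTT, 0.01% Triton X-100. Reaction started with 2 uM Z-FR-AMC; AMC fluorescence change over 60 s gave activity.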
Marburg entry inh: Marburg virus entry inhibition | AID 540276 | Marburg virus pseudotyped entry inhibition, cell reporter; control for the full effect not named in the record; about a third of the inactives were read at about 46 µM | Potency, µM (titrated, usually from 37.8 µM), for inactives: at the highest dose activity change, negative = inhibition, hits mostly inhibitors | hit rate 1.8% among 300,000; active = well fitted inhibition curve with a large enough effect; inconclusive = small, poorly fitted or top-dose-only effect, or effect the other way; inactive = flat fitted curve, though single readings scatter; tested in HEK293 cells; about a fifth of its hits are not listed in these tables; note: % is set by controls: 0 for no effect and ±100 for the full control effect; luciferase read-out
2A StopGo: lowers the luciferase signal of an FMDV 2A StopGo reporter; human cells with a luciferase reporter of 2A StopGo recoding; control for the full effect not named in the record; hit rate 1.2% among 410,000; Potency, µM (titrated, usually from 57.9 µM), without a hit: top-dose signal change, negative = less light; active = well fitted falling curve with a large enough effect; inconclusive = small, poorly fitted or top-dose-only effect; inactive = no such curve, though single readings can be large or run the other way; tested in HEK293T cells; note: % is set by controls: 0 for no effect and ±100 for the full control effect; nearly all actives have a fitted effect of over 45% in size; luciferase light after 4 h
An asterisk follows results filed as active; u = inconclusive; x = not tested or not shown; & = joins results of further samples; [ ] = dose if it differs, or a comment. Unless noted, calls come from the whole dose curve; as a rule, active = well fitted curve in the direction sought with a large enough effect; inconclusive = small, poorly fitted or top-dose-only effect, or another doubt; inactive = no such curve, though single readings can be large; an effect the other way counts as inactive or inconclusive. Potency is the fitted concentration of half-maximal effect. Not a hit list; 4.6% or so of the library scored in one or more.

The line under a structure holds: NS1 inh	Lassa entry inh	RE007 growth inh	Cruzain noTriton	SARS PLpro yeast	Cruzain Triton	Marburg entry inh	2A StopGo
- Cc1nn(-c2ccccc2)c2sc(C(=O)NNC(=O)COc3cccc4ccccc34)cc12
→ 1%	-1%	17%	u	-14%	6.6%	-14%	0%
- COc1ccc(CN(C)C(=O)CCN2C(=O)c3ccccc3C2=O)c(OC)c1OC
→ 4%	6%[46.1 µM]	3%	x	-1%	x	11%[46.1 µM]	0%
- CC(C)Cc1nc(SCC(=O)N2CCCCC2)c2c(=O)n(C)c(=O)n(C)c2n1
→ 0%	x	0%	x	0%	x	x	-13%
- O=C(CSc1ccccn1)C12CC3CC(CC(C3)C1)C2
→ -33%	u	35%	x	-1%	x	-3%&-3%[46.1 µM]	-5%
- Cc1ccc(OCC(=O)N/N=C/c2ccco2)cc1
→ -77%	7%	25%	-8%	-8%	1.1%	10%	x
- COC(=O)c1cc(S(=O)(=O)N(C)c2ccc(C)c(C)c2)c[nH]1
→ -24%	x	-7%	x	0%	x	x	0%
- CN(C)/C=C(\C#N)C(=O)N/N=C(\CC(=O)C(F)(F)F)c1ccco1
→ 4%	x	-16%	x	0%	x	5%[46.1 µM]	-8%
- Cc1ccc(S(=O)(=O)c2c(C)nn(-c3ccccc3)c2OC(=O)c2ccco2)cc1
→ 10%	11%	-18%	-4%	-14%	-6.3%	u	-13%
- Cc1ccc(NS(=O)(=O)c2cc(NC(=O)c3ccc4c(c3)NC(=O)CS4)ccc2Cl)c(C)c1
→ 10%	x	5%	x	0%	x	x	-22%
- O=S(=O)(N/N=C\c1ccc2c(c1)OCO2)c1ccc(Cl)cc1
→ 7%	2%	-5%	0%	-10%	-10%	7%	102%[activator]
- CCOc1ccc(NC(=O)c2cccc3c2C(=O)N(Cc2cccnc2)C3)cc1
→ -38%	15%	-4%	u	-1%	-4.9%	7%	0%
- COc1ccccc1NC(=O)c1ccc(COc2ccc3c(c2)CCC3)cc1
→ 5%	-1%	x	-5%	-2%	-4.4%	4%	30%
- COc1ccc(OC)c(NC(=O)[C@H](Cc2ccccc2)N2Cc3ccccc3C2=O)c1
→ x	4%[46.1 µM]	x	-7%	x	-2.0%	15%[46.1 µM]	-10%
- Cc1ccc2c(c1)cc1c(=O)n(CC(=O)N3CCCC3)nc(C)n12
→ 0%	x	-6%	x	7%	x	x	-9%
- CN1C(=O)S/C(=C/c2ccccc2OCc2ccc(C(=O)O)cc2)C1=O
→ x	-19%	16%	x	1%	x	-12%[46.1 µM]	-22%
- O=C1CC(NCc2ccc3c(c2)OCO3)C(=O)N1Cc1ccc2c(c1)OCO2 (stereo not drawn)
→ -3%	11%	-21%	6%	-25%	6.2%	26%	10%
- CCN(CC(=O)Nc1ccc2c(c1)OCCO2)CC(=O)Nc1ccccc1C(F)(F)F
→ x	10%	-7%	x	1%	x	-6%	-2%
- O=C(CN(C(=O)Cn1nnc(-c2ccc(F)cc2)n1)c1cnc2ccccc2c1)NCC1CCCO1 (stereo not drawn)
→ -1%	26%[46.1 µM]	-5%	x	1%	x	u	22%
- CCOC(=O)c1sc(Nc2ccccc2)nc1C
→ -55%	-18%	u	-1%	-1%	-4.3%	-7%	15%
- CCN(Cc1ccccc1)C(=O)CCS(=O)(=O)c1ccc2c(c1)n(C)c(=O)c(=O)n2C
→ -6%	x	-20%	x	-2%	x	x	-29%

Entries of single compounds, quoted from the list. Order of values: NS1 inh | Lassa entry inh | RE007 growth inh | Cruzain noTriton | SARS PLpro yeast | Cruzain Triton | Marburg entry inh | 2A StopGo
Shown for Cc1ccc(S(=O)(=O)c2c(C)nn(-c3ccccc3)c2OC(=O)c2ccco2)cc1 → 10% | 11% | -18% | -4% | -14% | -6.3% | u | -13%
Shown for Cc1ccc2c(c1)cc1c(=O)n(CC(=O)N3CCCC3)nc(C)n12 → 0% | x | -6% | x | 7% | x | x | -9%
Shown for O=C(CN(C(=O)Cn1nnc(-c2ccc(F)cc2)n1)c1cnc2ccccc2c1)NCC1CCCO1 (stereo not drawn) → -1% | 26%[46.1 µM] | -5% | x | 1% | x | u | 22%

(cont.)
The line under a structure holds: NS1 inh	Lassa entry inh	RE007 growth inh	Cruzain noTriton	SARS PLpro yeast	Cruzain Triton	Marburg entry inh	2A StopGo
- Cc1coc2c(C)c3oc(=O)c(CCC(=O)NCCCN4CCOCC4)c(C)c3cc12
→ -11%	x	-17%	x	-10%	x	x	-16%
- Cc1cc(=O)oc2cc(NC(=O)C(C)Oc3ccccc3)ccc12 (stereo not drawn)
→ x	1%[46.1 µM]	-4%	x	3%	x	u	42%[activator]
- CC(C)[C@H](NC(=O)c1ccccc1)C(=O)OCc1nnc(-c2ccccc2)o1
→ x	-1%	-8%	x	-2%	x	-7%[46.1 µM]	1%
- CCOc1ccccc1-c1nc(C(N)=O)c2[nH]c(=O)n(-c3ccc(F)cc3)c2n1
→ 2%	x	-1%	u	0%	1.3%	x	u
- COc1ccc(C)cc1N(CC(=O)N1CCCCCC1)S(=O)(=O)c1ccccc1
→ -7%	x	-5%	x	0%	x	7%[46.1 µM]	74%[activator]
- Cc1ccc(C(C(=O)NC2CCCC2)N(CCCO)C(=O)Cn2nnc(-c3ccc(C)o3)n2)cc1 (stereo not drawn)
→ 6%	u	-20%	x	1%	x	-11%[46.1 µM]	6%
- CCOC(=O)c1ccc(NC(=S)NCc2ccccc2)cc1
→ -13%	x	22%	x	-3%	x	x	45%[activator]
- COC(=O)c1sc(N)c(C(=O)OC)c1COC(=O)C12CC3CC(CC(O)(C3)C1)C2
→ 7%	-2%[46.1 µM]	-15%	x	0%	x	4%[46.1 µM]	21%
- CC1CCc2sc(C(=O)NC(C)C3CCCO3)cc2C1 (stereo not drawn)
→ 10%	-9%[46.1 µM]	12%	x	-3%	x	10%[46.1 µM]	35%[activator]
- COc1ccccc1/C=C/C(=C1/C(=O)N(c2ccccc2)N=C1C)c1ccc(C)cc1
→ 8%	3%	11%	25µM*	9%	-4.0%	0%[46.1 µM]	18%
- NS(=O)(=O)c1ccc(CCNC(=O)CN2CCN(c3ccccc3F)CC2)cc1
→ 9%	9%	12%	-4%	5%	-1.0%	u	-22%
- O=c1cc(CSc2ccccc2)[nH]c2ccccc12
→ 2%	x	-5%	x	0%	x	x	u
- CN1C(C(=O)N2CCc3ccccc3C2)=CC(c2ccc(F)cc2)=NS1(=O)=O
→ 19%	x	-3%	x	1%	x	x	-16%
- Cc1cccn2cc(CNC(=O)c3ccco3)nc12
→ 9%	2%	-24%	8%	-2%	0.3%	2%	13%
- CCOC(=O)C1=C(C)N(CCO)C(=O)NC1c1ccccc1 (stereo not drawn)
→ 0%	6%	6%	-9%	25%	5.5%	-12%	15%
- Cc1cccc(Oc2ccc(NC(=O)c3ccccc3C(=O)O)cc2)c1C
→ x	5%	32%	x	-9%	x	0%[46.1 µM]	12%
- CCN(CC1COc2ccccc2O1)C(=O)CN1C(=O)NC(C)(c2ccc(C)cc2)C1=O (stereo not drawn)
→ x	u	-16%	x	x	x	22%	-15%
- COc1ccc(-c2nc3sc(CCNC(=O)Cc4ccc(F)cc4)c(C)n3n2)cc1
→ x	6%[46.1 µM]	x	24%	x	-2.9%	x	12%
- Cc1cccc(C(=O)Nc2cccnc2Cl)c1
→ 4%	12%[46.1 µM]	-1%	x	5%	x	u	28%
- C=CCON1C(=O)c2ccccc2C1=O
→ 3%	-3%	-10%	-7%	-8%	5.3%	1%	-16%
- COC(=O)c1sccc1NC(=O)c1cccs1
→ -5%	x	-14%	x	-1%	x	x	-2%
- CSCC[C@H](NC(=O)[C@H](Cc1ccccc1)n1c(=O)[nH]c2ccccc2c1=O)C(=O)N1CCC(C(=O)O)CC1
→ u	x	-1%	x	6%	x	x	-14%
- Clc1cccc(C[n+]2cc(-c3ccccc3)n3c2CCC3)c1
→ 8%	3%	x	-10%	17%	-3.6%	u	-5%
- CCOc1ccc(CCNC(=O)CCc2c(C)nc3c(c(C)nn3-c3ccc(C)c(C)c3)c2C)cc1
→ x	7%[46.1 µM]	x	-3%	x	1.9%	7%[46.1 µM]	-16%
- CC1CCCCN1Cc1nc2c(c(=O)n(C)c(=O)n2C)n1Cc1ccc(Br)cc1 (stereo not drawn)
→ x	14%[46.1 µM]	x	5%	x	-2.8%	17%[46.1 µM]	-22%
- CC1CCN(C2CC(=O)N(c3ccccc3)C2=O)CC1 (stereo not drawn)
→ -46%	16%[46.1 µM]	20µM*	x	-7%	x	-12%[46.1 µM]	-2%
- O=C(Oc1ccc(C(=S)N2CCOCC2)cc1Cl)c1ccccc1F
→ -38%	x	1%	x	u	x	x	-8%
- O=[N+]([O-])c1cc(Cl)cc(/C=N/n2cnnc2)c1O
→ x	-19%	-8%	x	3%	x	13%	u
- CN(CC(=O)Nc1ccccc1Br)C(=O)c1cccn1C
→ x	15%	-12%	x	1%	x	-5%	-1%
- O=C1CCC(C(=O)N2CCCC(Nc3ccc(F)cc3)C2)=NN1 (stereo not drawn)
→ 3%	19%	-25%	x	-1%	x	-21%	-14%
- C=CCn1c2ccccc2c2nnc(SCc3ccc4nonc4c3)nc21
→ -2%	-16%	-8%	-9%	2%	0.2%	-22%&-22%	-8%
- CC12CCC(C(=O)N(CSC(=S)N/N=C\c3ccccc3Cl)C1=O)C2(C)C (stereo not drawn)
→ 10µM*	-11%	27%	16µM*	u	2.8%	0%	8%
- Cc1ccccc1NS(=O)(=O)c1cc2c3c(c1)C(C)C(=O)N3CCC2 (stereo not drawn)
→ 11%	x	-8%	x	-2%	x	x	21%
- Cc1cc(C)cc(NS(=O)(=O)c2ccc(NC(=S)Nc3ccccc3)cc2)c1
→ 6%	1%	-1%	24%	3%	-8.0%	1%	53%[activator]
- CCOC(=O)Nc1ccc2ncn(C)c(=O)c2c1
→ -8%	x	-2%	11%	-5%	1.8%	x	-7%
- O=C(NC1CCCCC1)c1ccc([N+](=O)[O-])o1
→ -22%	u	-4%	x	1%	x	u	-14%

Assay outcomes (PubChem BioAssay)
